GIV-Gai inh = inhibitors of GIV GBA-motif binding to rat Galpha-i3. percent of control (FP), % (test concentration not listed). 210,000 tested, 0.42% active. Galpha-i3/FITC-GIV peptide fluorescence polarization, 90 min; active compounds read low; scaled: aluminum fluoride 0%, vehicle 100%;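 active = replicate mean at 85% of control or lower, very high polarization wells dropped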;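 note: lower values mean more displacement of the GIV peptide from Galpha-i3; wells of about 15 µL received 100 nL stock; the first replicate is given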
Target sequence (P08753 whole entry, looked up): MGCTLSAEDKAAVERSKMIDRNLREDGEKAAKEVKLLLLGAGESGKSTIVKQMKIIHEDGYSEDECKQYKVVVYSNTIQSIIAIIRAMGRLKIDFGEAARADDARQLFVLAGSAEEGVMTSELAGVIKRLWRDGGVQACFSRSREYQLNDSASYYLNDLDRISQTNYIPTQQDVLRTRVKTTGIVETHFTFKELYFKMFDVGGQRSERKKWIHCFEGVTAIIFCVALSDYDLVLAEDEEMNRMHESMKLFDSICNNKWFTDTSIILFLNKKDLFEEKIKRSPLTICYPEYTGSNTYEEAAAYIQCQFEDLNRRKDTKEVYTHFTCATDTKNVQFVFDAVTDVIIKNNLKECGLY
HCMV UL50-53 inh = disrupts HCMV UL50-UL53 complex binding. HTRF UL50-UL53 interaction, normalized percent inhibition. 190,000 tested, 0.15% active. inhibition, % (concentration not given with the values). AID 1918969;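 active = both replicates at 50% or more, plus weaker picks with an unusually low signal ratio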;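 note: stock transfer was 100 nL into about 20 µL; 0% = negative control wells and 100% = wells with untagged competitor protein; inactives centre near -12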
Sa growth inh = inhibitors of Staphylococcus aureus growth at 42 °C. S. aureus RN4220 growth, OD600, 20 h; active compounds read low. relative growth, % (concentration not given with the values). 170,000 tested, 0.53% active;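 active = growth at 42 °C up to 50% and 20 or more points under that at 30 °C, or under 10% at both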;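 note: 300 nL library stock went into each well; scaled to the means of positive and negative controls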
Sa growth inh second temp = also measured in Sa growth inh; calls as there; relative growth, %; measured here: growth at 30 °C;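 optical density after 20 h as mean of two plates; 100% = untreated growth and lower means inhibition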
An asterisk follows results filed as active; nt = no result given; & = joins results of further samples.

Below each SMILES: GIV-Gai inh | HCMV UL50-53 inh | Sa growth inh | Sa growth inh second temp
1) CCN1C(=O)c2ccc(-c3nc4ccccc4c(=O)o3)cc2C1=O
→ 99.8 | -14.3 | 82.7 | 92.0
2) CSc1sc(C(=O)N(C)C)c2c1S(=O)(=O)N(C)c1ccccc1-2
→ 105.7 | -7.4 | 101.6 | 88.1
3) COCC(C)Nc1nc(-c2ccc(OC)c(OC)c2)cs1 (configuration not stated)
→ nt | -39.5 | 69.6 | 88.1
4) COc1ccc(-c2nc3ccccc3s2)cc1NC(=O)c1ccccc1F
→ 106.3&100.8 | -8.7&-24.8 | 94.0 | 99.6
5) COc1ccc(OC)c(NC(=O)CCCOc2cc(=O)n(C)c3ccccc23)c1
→ 105.8 | -13.0 | 110.9 | 85.0
6) CCC(C(=O)Nc1cccc(-c2cn3cccnc3n2)c1)c1ccccc1 (configuration not stated)
→ 106.4 | nt | 91.8 | 82.5
7) CC(=O)Nc1ccc(-c2csc(N)n2)cc1
→ 100.7 | -56.0 | 104.8 | 97.2
8) Cc1ccc(OCC(O)Cn2c(C3CC3)nc3ccccc32)c(C)c1 (configuration not stated)
→ 100.7 | -19.7 | nt | nt
9) CC1=NN(C(=O)c2ccc(Cl)cc2)C(C)(C)C1
→ 104.4 | nt | 107.2 | 86.5
10) Cc1cccc(C(=O)Nc2ccc(OCc3cc(=O)n4ccsc4n3)cc2)c1
→ 101.7 | -45.4 | 89.0 | 94.7
11) CC1CCc2noc(NC(=O)COc3ccccc3Cl)c2C1 (configuration not stated)
→ 101.2 | -12.3 | nt | nt
12) Cc1[nH]nc(-c2ccc(S(=O)(=O)NC(C)C)o2)c1C
→ 112.6 | -26.9 | nt | nt
13) CCN1CCCC(N)C1 (configuration not stated)
→ 104.4 | -19.7 | 90.0 | 90.8
14) CCOC(=O)c1cccc(NC(=O)Cn2c(=O)nc(-c3ccccc3F)c3cc(Cl)ccc32)c1
→ 101.6 | nt | 89.4 | 84.2
15) O=C1S/C(=C\c2ccc3c(c2)OCO3)C(=O)N1Cc1ccc(F)cc1
→ 99.0 | -21.3 | 95.9 | 92.0
16) O=C(NCCN1CCc2ccccc2C1)C1CC(=O)N(C2CCCC2)C1 (configuration not stated)
→ 104.2 | 2.6 | 94.6 | 79.2
17) Cc1ccc2nc(N(CCN(C)C)C(=O)c3ccco3)sc2c1
→ 104.6 | nt | 101.9 | 87.0
18) COC(=O)c1cn(CC(=O)NCc2ccc3c(c2)OCO3)c2ccccc12
→ nt | 0.5 | 93.3 | 92.9
19) O=C(NCc1ccc(Cl)cc1)c1ccc2c(c1)N(Cc1cccc(F)c1)C(=O)CS2=O (configuration not stated)
→ 100.5 | nt | 83.3 | 88.1
20) Cc1cccc(NC(=O)CSc2nc3c(oc4ccccc43)c(=O)n2Cc2ccco2)c1
→ 101.5 | -16.8 | 110.2 | 87.0
21) O=c1[nH]c(=O)n(CCCO)c(O)c1N=Nc1c(Cl)cccc1Cl
→ 100.4 | -96.0 | 92.5 | 87.8
22) COCC(=O)Nc1ccc(S(=O)(=O)NC(C)(C)C)cc1
→ 106.1 | -2.5 | 105.2 | 98.5
23) CC1=C(C(=O)Nc2ccc(C)cc2C)C(c2cccs2)n2nc(SCc3ccc(Cl)cc3)nc2N1 (configuration not stated)
→ 104.4 | -10.8 | 113.5 | 86.5
24) CCC(C(=O)NC1CCCCC1)n1c(SCc2ccc(F)cc2)nc2ccncc21 (configuration not stated)
→ 103.4 | -24.4 | 108.3 | 82.2
25) O=S(=O)(NCCc1csc2nc(-c3ccccc3)nn12)c1cc(F)ccc1F
→ 96.1 | nt | 121.4 | 91.0
26) CCOC(=O)CCc1c(C)nc2ccc(Br)cn2c1=O
→ 108.0 | nt | 105.0 | 91.0
27) COc1ccc(CCNc2nc3c(c(=O)n(C)c(=O)n3C)n2Cc2cccc(Br)c2)cc1OC
→ 107.4 | 1.0 | nt | nt
28) CC1=NOC(=O)/C1=C\c1ccccc1
→ 103.0 | -11.5 | 77.6 | 75.3
29) Cc1cc(C)c(-n2nnnc2SCC(=O)Nc2nn(-c3ccccc3)nc2C(N)=O)c(C)c1
→ nt | -10.5 | 105.1 | 84.7
30) CCn1cc(C(=O)N2CCN(c3ccc(F)cc3)CC2)c(=O)c2cc(S(=O)(=O)N(C)C3CCCCC3)ccc21
→ 103.7 | -10.2 | 101.0 | 84.2

(continued)
Below each SMILES: GIV-Gai inh | HCMV UL50-53 inh | Sa growth inh | Sa growth inh second temp
31) CCc1ccc(NC(=O)c2nc(S(C)(=O)=O)ncc2N(Cc2ccc(C)cc2)Cc2ccco2)cc1
→ 110.0 | -12.3 | 92.9 | 93.3
32) CCC(=O)N(CCC(c1ccco1)c1ccccc1OC)Cc1cccs1 (configuration not stated)
→ 120.9 | -0.7 | 64.5 | 55.3
33) C/C(N)=N/S(=O)(=O)c1cc(C(F)(F)F)cc(C(F)(F)F)c1
→ 94.0 | -16.9 | 91.1 | 86.1
34) COCC(=O)Nc1c(C(=O)Nc2ccc(C)c(C)c2)oc2ccccc12
→ 100.7 | -29.5 | 86.3 | 77.6
35) CCCCOC(=O)c1ccccc1Nc1ccn2c(=O)c3ccccc3nc2n1
→ nt | -19.6 | 89.1 | 76.8
36) Cc1cccc(C(=O)Nc2nnc(SCc3cc(=O)n4cccc(C)c4n3)s2)c1
→ 102.5 | nt | 77.5 | 89.8
37) COc1ccc(NC(=O)Nc2cccc(-c3noc(C4CCC4)n3)c2)c(OC)c1
→ 106.4 | -25.7 | nt | nt
38) CCN(C(=O)Cn1ncc2c1-c1cc(C)ccc1OC2)c1cc(Cl)ccc1OC
→ 96.4 | -22.0 | 90.6 | 78.8
39) CC(NC(=O)c1ccccc1)c1nc2ccccc2n1C(C)C (configuration not stated)
→ nt | 0.4 | 104.4 | 97.5
40) COc1cc2c(cc1OC)C(c1ccccc1)N(C(=O)CSc1nc3ccccc3o1)CC2 (configuration not stated)
→ 94.2 | nt | 108.2 | 80.1
41) C(=Nc1cccc2ccccc12)c1c[nH]c2ccccc12
→ 111.0 | nt | 95.8 | 43.9
42) CCn1ccc2c(OCC(=O)NCc3ccc(C)cc3)cccc2c1=O
→ 96.2 | nt | 111.4 | 82.0
43) O=C(Nc1ccc(Cl)c(Cl)c1)NC1CCCCC1
→ nt | -10.1 | 111.4 | 81.1
44) Cc1oc(-c2ccccc2)nc1CS(=O)CC(=O)N1CCc2ccccc21 (configuration not stated)
→ 102.5 | -3.1 | 109.5 | 83.3
45) Cc1cccc(N2CCN(C(=O)Cc3c(C(=O)O)c(C)cn3C)CC2C)c1 (configuration not stated)
→ 99.4 | nt | 82.1 | 88.5
46) Cc1oc2ncn(CC(=O)Nc3cccc(Cl)c3C)c(=O)c2c1C
→ 101.2 | -18.3 | nt | nt
47) CCn1c(C(=O)NCc2ccc(OC(C)C)cc2)cc2oc3ccccc3c21
→ 97.6 | -8.1 | 96.5 | 66.6
48) COc1cccc(-c2noc(CCCC(=O)NCc3ccco3)n2)c1
→ 104.0 | 19.0 | 100.0 | 90.1
49) Cc1cc(-n2nnc(C(=O)OCc3ccc(Cl)cc3)c2C)ccc1Br
→ 105.9 | 6.9 | nt | nt
50) Cc1ccc(CNC(=O)CCSCc2ccc(C)cc2)cc1
→ 103.6 | nt | 117.6 | 81.3
51) CCn1cc(CNC(=O)c2cc(-c3ccc(C)c(C)c3)nc3ccccc23)c(C)n1
→ 111.1 | -19.2 | 103.0 | 102.7
52) Cc1nn(C(C)(C)C)c(OC(=O)c2c(F)cccc2F)c1Sc1ccccc1
→ 106.5 | 2.6 | 107.2 | 109.4
53) COc1ccc(CCNC(=O)CS(=O)Cc2nc(-c3ccc(C)cc3)oc2C)c(OC)c1 (configuration not stated)
→ 100.6 | nt | 105.9 | 95.9
54) CC(C)CNC(=O)Cn1nc(C(F)(F)F)c2c1CCCC2
→ 99.1 | -21.3 | 98.5 | 89.0
55) Cn1cnnc1SCc1cc(=O)c(OCc2cccc(F)c2)co1
→ 105.0 | -8.4 | 98.2 | 90.1
56) N#CC(C(=O)COc1ccccc1)c1ccccc1 (configuration not stated)
→ 103.4 | -16.9 | 100.9 | 52.3
57) COc1ccccc1-c1cc(NC(=O)COc2ccccc2Cl)n(-c2ccccc2)n1
→ 105.8&108.3 | nt | 102.1 | 90.5
58) CCc1ccc(C(=O)CC2(O)C(=O)N(Cc3ccc(C)cc3)c3ccccc32)cc1 (configuration not stated)
→ 105.3 | -28.1 | 95.3 | 74.3
59) CCc1ccc(NC(=O)CSc2nnc(-c3nonc3NC(C)=O)n2-c2ccccc2)cc1
→ 98.5 | -40.8 | 95.2 | 77.5
60) NC(=O)COC(=O)c1ccccc1OCc1ccc(F)cc1
→ nt | -12.3 | 92.5 | 93.4

The list goes on.
Below each SMILES: GIV-Gai inh | HCMV UL50-53 inh | Sa growth inh | Sa growth inh second temp
61) CCn1c(=O)n(CC)c2cc(S(=O)(=O)N3CCOCC3)ccc21
→ nt | 5.8 | 99.6 | 95.1
62) COc1ccc(C2C(C#N)=C(N)Oc3n[nH]c(-c4ccc([N+](=O)[O-])cc4)c32)cc1OC (configuration not stated)
→ 104.4 | -20.6 | nt | nt
63) CC(C)CNC(=O)CN1CCN(c2ccc(NC(=O)C3CC3)c(C(=O)O)c2)CC1
→ 97.6 | -26.9 | nt | nt
64) O=C(CSc1nc(-c2ccc(Cl)cc2)nc2cc(=O)[nH]n12)Oc1ccccc1
→ 104.9 | -26.5 | nt | nt
65) CCC(C)NC(=O)C1CCCN(S(=O)(=O)N2CCC(C)CC2)C1 (configuration not stated)
→ 105.2 | nt | 83.1 | 81.2
66) CCOC(=O)CCNC(=O)NCCc1nc2cccnc2n1-c1ccccc1
→ 108.6 | -15.4 | nt | nt
67) Cc1cc2n(n1)CCC(=O)N2C(C)C(=O)NCCc1ccc(Cl)cc1 (configuration not stated)
→ 102.9 | 2.1 | nt | nt
68) O=S(=O)(NCCc1cn2ccccc2n1)c1ccc2c(c1)CCCC2
→ 102.0 | nt | 119.4 | 91.8
69) CSc1ccccc1NC(=O)CN1CCC(C)CC1
→ nt | -2.0 | 94.2 | 91.6
70) Cc1cc(Cl)nc(Cl)c1C(=O)NC(=O)NC(C)(C)C
→ nt | -10.2 | 98.5 | 86.1
71) COc1ccc(CCN2COc3c(cc4c(-c5ccccc5)cc(=O)oc4c3C)C2)cc1
→ 109.7 | nt | 95.2 | 77.5
72) CCOC(=O)C1CCN(C(=O)CCCCn2c(=O)[nH]c3ccccc3c2=O)CC1
→ 96.6 | -3.6 | 104.3 | 88.9
73) Cc1cc(-c2ccccc2)[n+]2nc(N)sc2n1
→ nt | -47.9 | 153.6 | 83.4
74) O=C(Nc1ccc(Br)cc1)c1cc(-c2ccc(F)cc2)on1
→ 97.6 | -3.4 | 82.4 | 83.0
75) CCCCOc1ccc(C2(C)NC(=O)N(C)C2=O)cc1 (configuration not stated)
→ 106.6 | -5.8 | 68.1 | 76.5
76) Cc1ccc(SC(C)C(=O)Nn2cnnc2)cc1 (configuration not stated)
→ 110.1 | 1.1 | 102.6 | 97.5
77) O=C(Oc1ccccc1NC1=NS(=O)(=O)c2ccccc21)c1cccc([N+](=O)[O-])c1
→ 109.1 | -46.2 | nt | nt
78) CCOC(=O)c1cc(CC)sc1NC(=S)Nc1ccccc1C(F)(F)F
→ 99.6 | -19.3 | 76.5 | 81.5
79) CCN(C(=O)c1cnc2ccccn2c1=O)c1ccccc1C
→ 107.0 | nt | 108.8 | 81.9
80) COc1ccc2c(c1)Cc1sc(NC(=O)c3cccc(Br)c3)nc1-2
→ 102.9 | nt | 123.3 | 79.1
81) CCN(CCCNC(=O)Cn1ncc2c([nH]c3ccc(C)cc32)c1=O)c1cccc(C)c1
→ 103.8 | nt | 102.1 | 90.3
82) Cc1cc(COC(=O)c2ccc(C#N)cc2)no1
→ nt | -25.6 | 95.9 | 83.9
83) COc1cccc(COc2cc(C)c3c(C)nn(C)c3n2)c1
→ 100.5 | 17.9 | nt | nt
84) Cc1c(Cl)cccc1NS(=O)(=O)c1ccc(NS(=O)(=O)c2ccc3c(c2)OCCO3)cc1
→ 101.7 | -25.0 | 98.3 | 74.2

Screening results from PubChem.
